# Sa growth 42C – S. aureus growth inhibition; relative growth, % (concentration not given with the values); S. aureus RN4220 growth, OD600, 20 h, 42 °C; active compounds read low; 170,000 tested, 0.53% active;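 active means growth at 42 °C up to 50% and 20 or more points under that at 30 °C, or under 10% at both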;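 further: 300 nL library stock went into each well; scaled to the means of positive and negative controls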
# GIV Gai3 FP – GIV-Galpha-i interaction inhibition. 210,000 tested, 0.42% active. AID 1224905. Galpha-i3/FITC-GIV peptide fluorescence polarization, 90 min; active compounds read low; scaled: aluminum fluoride 0%, vehicle 100%. P08753. percent of control (FP), % (concentration not given with the values);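 active means replicate mean at 85% of control or lower, very high polarization wells dropped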;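 further: wells of about 15 µL received 100 nL stock; the first replicate is given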
# Target sequence (P08753 whole entry, looked up): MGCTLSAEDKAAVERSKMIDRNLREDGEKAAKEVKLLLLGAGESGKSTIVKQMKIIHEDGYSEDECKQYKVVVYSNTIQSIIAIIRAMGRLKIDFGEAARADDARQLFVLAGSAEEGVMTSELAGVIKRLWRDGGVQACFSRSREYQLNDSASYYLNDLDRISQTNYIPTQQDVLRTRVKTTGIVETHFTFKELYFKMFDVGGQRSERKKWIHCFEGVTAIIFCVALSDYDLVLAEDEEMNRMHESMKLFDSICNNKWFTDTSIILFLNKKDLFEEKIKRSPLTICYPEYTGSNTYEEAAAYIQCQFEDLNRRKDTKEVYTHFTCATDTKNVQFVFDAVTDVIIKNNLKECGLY
# HCMV UL50-53 inh – inhibitors of HCMV UL50-UL53 nuclear egress complex interaction; HTRF UL50-UL53 interaction, normalized percent inhibition; inhibition, % (test concentration not listed); 190,000 tested, 0.15% active;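 active means both replicates at 50% or more, plus weaker picks with an unusually low signal ratio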;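 further: stock transfer was 100 nL into about 20 µL; 0% = negative control wells and 100% = wells with untagged competitor protein; inactives centre near -12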
# Sa growth 42C second temp – further read-out of Sa growth 42C, marked with its call; relative growth, %; measured here: growth at 30 °C;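 optical density after 20 h as mean of two plates; 100% = untreated growth and lower means inhibition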
# Numbers without * were called inactive; · = no result given; & = joins results of further samples. An unsorted share of the library; any-hit rate near 0.85%.
# Every second line gives: GIV Gai3 FP, HCMV UL50-53 inh, Sa growth 42C second temp, Sa growth 42C
CCOc1ccccc1C1C(C#N)=C(SCC(=O)Nc2ccc(Br)cc2)NC(=O)C1C#N (stereo unspecified)
    98, -25, ·, ·
Cc1cn2c(=O)c3c4c(sc3nc2s1)CCCC4
    103, -5, 85, 96
CC1C(=O)Nc2ccc(S(=O)(=O)N3CCCCC3)cc2NC1=O (stereo unspecified)
    95, 0, 91, 94
Cc1c(Cl)cccc1-n1ncc(C(=O)N2CCN(c3ncccn3)CC2)c1C1CCN(C(=O)OC(C)(C)C)CC1
    108, ·, 91, 90
O=C(CCc1ccc(-n2cnc3cccnc32)cc1)NCCc1cccs1
    124, -34, 77, 101
CC12CCC3(C)OCC(COC(=O)Nc4ccccc4)(CO1)N23 (stereo unspecified)
    104, 5, 77, 102
COc1ccc(CNC(=O)c2[nH]c(C)c(C(=O)NC3CCCCC3)c2C)cc1
    97, -22, 85, 93
Cn1c(C(=O)N2CCCC(C(=O)NCCc3ccc(S(N)(=O)=O)cc3)C2)cc2sccc21 (stereo unspecified)
    108, 4, 91, 94
Cc1ccccc1N1NC(=O)C(C)(C)C1=O
    102, -28, ·, ·
CCc1cccc(C)c1NC(=O)COC(=O)C1CC(=O)N(c2ccc(OC(C)C)cc2)C1 (stereo unspecified)
    ·, -6, 87, 108
CCCc1ccc(S(=O)(=O)n2cc3c(=O)n(C)c(=O)n(C)c3n2)cc1
    108, -28, ·, ·
O=C(NCc1c(Cl)cccc1Oc1ccccc1)c1ccc2nccnc2c1
    97, -25, 79, 93
COc1ccc(C2CC(=O)N(c3ccc(C)c(F)c3)C(=O)C2)cc1
    101, 6, ·, ·
NC(=O)/C=C/c1ccco1
    101, -22, 104, 93
CCOC(=O)c1cc(-c2ccc(Cl)cc2)oc1C
    103, 0, 110, 111
CC1CCCCN1S(=O)(=O)c1ccc(NC(=O)Cn2cnc3ccccc3c2=O)cc1 (stereo unspecified)
    102, -9, 81, 99
COc1cc(OC)c(NC(=O)CCc2ccccc2)cc1Cl
    ·, 12, 110, 93
O=c1cc(-c2ccccc2)nc(SCCOc2ccccc2F)[nH]1
    ·, -17, 88, 95
COc1ccc(N2C(=O)C(C)C(Cc3ccc(C)cc3)C2=O)cc1 (stereo unspecified)
    101, 12, 104, 100
CC(=O)OC(OC(C)=O)C12C=CC(O1)C1C(=O)N(c3ccc(Br)cc3[N+](=O)[O-])C(=O)C12 (stereo unspecified)
    107, -56, ·, ·
CCn1c(C(=O)N2CCC(C(=O)NCCc3ccc(OC)cc3OC)CC2)cc2sccc21
    106, 13, 98, 75
COc1ccc(NC(=O)c2cccnc2SC)cc1
    104, ·, 85, 95
CC1(C)CN(c2ccc(Cl)cn2)C1=O
    104, 10, ·, ·
CNC(=O)CC1Nc2ccccc2NC1=O (stereo unspecified)
    ·, -22, 81, 110
COc1cccc(-c2nn(Cc3ccccc3)cc2CNCCCn2ccnc2)c1
    ·, -9, 83, 95
COc1ccc(C)cc1NS(=O)(=O)c1ccc2c(c1)CCCN2C(C)=O
    105, ·, 99, 116
Cn1nc(C(C)(C)C)cc1C(=O)NCc1ccc(-c2cccs2)cc1
    107, -55, 90, 95
COc1ccccc1N1CCN(c2nc3ccc(C(=O)c4ccccc4)cc3n3c(C)nnc23)CC1
    105, ·, 88, 118
O=C(CCn1cnc2cc(S(=O)(=O)N3CCCCC3)ccc21)N1CCN(c2ccccn2)CC1
    107, -11, ·, ·
CCC(Sc1nc2sc(C(=O)OC)c(C)c2c(=O)n1N)C(=O)Nc1cccc(OC)c1 (stereo unspecified)
    105, ·, 89, 102
O=C(COn1nnc2ccccc21)Nc1ccccc1C(=O)Nc1ccc2c(c1)OCO2
    ·, 0, 102, 94
Cc1ccc(CNc2cc(-c3nn4c(C)nnc4s3)ccc2C)s1
    102, -19, 85, 101
CCn1c(SCC(=O)Nc2nc(C)c(C)s2)nnc1C(C)NC(=O)c1ccccc1F (stereo unspecified)
    104, -29, 87, 107
Cc1ccc(NC(=O)c2ccc(F)c(S(=O)(=O)N3CCc4ccccc4C3)c2)cc1F
    110, ·, 93, 127
COc1ccc(S(=O)(=O)N(C(=O)c2ccc(Cl)cc2)c2ccc3oc(=O)sc3c2)cc1OC
    97, -13, ·, ·
Nc1cc(CCCC(=O)O)sc1CCCC(=O)O
    93, -18, 83, 79
CCCCCCOc1ccc(/C=C(\C#N)C(=O)NCc2ccco2)cc1
    ·, -10, 92, 86
CCOC(=O)c1cc2c(=O)n3ccccc3nc2n(CCCOC)c1=NC(=O)C(C)Oc1ccccc1 (stereo unspecified)
    104, -89, 91, 104
CN1CCCN(C(=O)c2ccncc2)CC1
    101, 19, 104, 101
CCOc1ccc2c(c1)NC(c1cccs1)=NC(c1ccc(F)cc1)=N2
    100, -11, 89, 86
CCc1ccc(-n2ncc(-c3cc(C(=O)Nc4ccccc4C(=O)OC)c4ccccc4n3)c2C)cc1
    97, -22, ·, ·
COCCc1nn2c(=O)cc(COC(=O)COc3ccc(F)cc3)nc2s1
    100, ·, 97, 86
CC(NC(=O)c1ccccc1)C(c1cccs1)N1CCOCC1 (stereo unspecified)
    100, -36, 89, 92
COc1cccc(Cn2c(=O)n(CC3CCC(C(=O)N4CCOCC4)CC3)c(=O)c3sccc32)c1 (stereo unspecified)
    102, ·, 96, 104
Cc1cc(C)cc(OCC(=O)OCC(=O)c2ccc3c(c2)OCO3)c1
    ·, -8, 90, 96
CC1(C)Cc2ccccc2-c2nc(NN)[nH]c(=O)c21
    104, -20, 86, 123
CC(C)N=C(Nc1ccnn1C(C)C)c1ccccc1
    ·, 10, 95, 104
CCOC(=O)Cc1csc(SCC(=O)Nc2cc(C(C)(C)C)nn2-c2ccccc2)n1
    ·, -6, 85, 102
CCN(CC)C(=O)/C(C#N)=C/c1ccc(-c2ccc(Cl)cc2)o1
    ·, 0, 94, 102
COc1ccc(NC(=O)c2sc3nc4c(cc3c2N)CN(C(C)C)CC4)c(OC)c1
    117, -123, 85, 97
CC(CBr)(NS(=O)(=O)c1ccccc1)c1ccccc1 (stereo unspecified)
    ·, 24, 97, 87
Cc1ccc(-c2noc(-c3cccnc3NC(C)c3ccc(C)cc3)n2)cc1 (stereo unspecified)
    94, -20, ·, ·
C=CCNC(=O)c1sc(=S)n2c1[nH]c(=O)c1cc3c(cc12)OCO3
    100, -40, ·, ·
NS(=O)(=O)c1ccc(CCNC(=O)c2c(Cl)nc3sccn23)cc1
    ·, -34, 93, 102
O=C(Cn1cnc2onc(-c3ccc(Cl)cc3)c2c1=O)NCCC1=CCCCC1
    101&101, -30&-23, 86, 92
CN(C(=O)COC(=O)c1ccc(CO)cc1)c1ccccc1
    ·, -16, 90, 90
O=C(NCc1ccco1)c1ccc2c(=O)n(CCCN3CCCC3=O)c(=S)[nH]c2c1
    102, -19, 74, 92
N#C/C(=C\Nc1ccc(F)cc1)c1nc(-c2cc3cc(Br)ccc3oc2=O)cs1
    96, -22, ·, ·
CSc1ccccc1C(=O)NCc1ccc(S(N)(=O)=O)cc1
    ·, -15, 92, 85
CC1CCc2c(sc3ncn(CC(=O)N4CCCC4)c(=O)c23)C1 (stereo unspecified)
    100, -14, 96, 109

# An excerpt of these results, with each value named.
> O=C(Cn1cnc2onc(-c3ccc(Cl)cc3)c2c1=O)NCCC1=CCCCC1
  GIV Gai3 FP: 101&101 | HCMV UL50-53 inh: -30&-23 | Sa growth 42C second temp: 86 | Sa growth 42C: 92

> CC1(C)Cc2ccccc2-c2nc(NN)[nH]c(=O)c21
  GIV Gai3 FP: 104 | HCMV UL50-53 inh: -20 | Sa growth 42C second temp: 86 | Sa growth 42C: 123

> CC1CCc2c(sc3ncn(CC(=O)N4CCCC4)c(=O)c23)C1 (stereo unspecified)
  GIV Gai3 FP: 100 | HCMV UL50-53 inh: -14 | Sa growth 42C second temp: 96 | Sa growth 42C: 109

> N#C/C(=C\Nc1ccc(F)cc1)c1nc(-c2cc3cc(Br)ccc3oc2=O)cs1
  GIV Gai3 FP: 96 | HCMV UL50-53 inh: -22 | Sa growth 42C second temp: · | Sa growth 42C: ·

# The results go on.
# Every second line gives: GIV Gai3 FP, HCMV UL50-53 inh, Sa growth 42C second temp, Sa growth 42C
Cc1cc(C)nc(NS(=O)(=O)c2ccc(NC(=O)c3nc(SC(C)C)ncc3Cl)cc2)n1
    96, -40, 66, 87
O=C(CC(c1cccs1)N1Cc2ccccc2C1=O)Nc1ccc(F)c(F)c1 (stereo unspecified)
    105, ·, 85, 109
C=CCc1cccc(/C=N/NC(=O)CN2CCN(Cc3ccccc3)CC2)c1O
    99, 4&3&3&-33, ·, ·
COc1cc(C(=O)NCc2ccc3c(c2)CCN3C(=O)c2ccncc2)cc(OC)c1OC
    101, ·, 92, 107
O=C1CN(c2cc(Cl)cc(Cl)c2)C(=O)CN1/N=C/c1cccnc1
    104, 12, 102, 110
COCCN1C(=O)C2C3c4ccccc4C(c4ccccc43)C2C1=O (stereo unspecified)
    101, -4, 84, 119
CC1CCN(c2nccn(-c3cccc(Cl)c3)c2=O)CC1
    103, -50, 89, 105
COC(=O)C1(O)CC(C)N(C)CC1C (stereo unspecified)
    102, -5, 87, 100
COC(=O)c1scc(-c2ccc(C)cc2)c1S(=O)(=O)N1CCN(c2ccc(OC)cc2)CC1
    104, ·, 94, 112
Cc1nc(-c2ccc(F)cc2)sc1CCNS(C)(=O)=O
    105, -8, ·, ·
CSc1n[nH]c(=O)n1-c1ccc(Cl)cc1
    100, 4, 104, 112
COc1ccc(-c2c3c(=O)n(C)c(=O)n(C)c3c3c(-c4cccc(C)c4)nc4ccccc4n23)cc1
    98, -2, 99, 107
O=C(O)/C=C/c1ccsc1
    ·, -24, 89, 79
O=C(CCc1nc(-c2cccs2)no1)Nc1cccc(C(=O)NC2CC2)c1
    ·, -12, 89, 76
COC(=O)c1ccccc1NC(=O)c1ccc(-c2nc(COc3ccc(C)cc3)c(C)o2)cc1
    108, -6, ·, ·

# Shown in CSV form: entries from further up.
Molecule,GIV Gai3 FP,HCMV UL50-53 inh,Sa growth 42C second temp,Sa growth 42C
O=C1CN(c2cc(Cl)cc(Cl)c2)C(=O)CN1/N=C/c1cccnc1,104,12,102,110
COCCN1C(=O)C2C3c4ccccc4C(c4ccccc43)C2C1=O (stereo unspecified),101,-4,84,119

# (more compounds)
# Every second line gives: GIV Gai3 FP, HCMV UL50-53 inh, Sa growth 42C second temp, Sa growth 42C
COc1ccc(-c2noc(CC(=O)N(C)c3cc(Cl)c(OC)cc3OC)n2)cc1
    105, ·, 88, 117
O=c1ccc(N2CCCN(S(=O)(=O)c3cnc[nH]3)CC2)nn1-c1ccccc1
    102, -12, ·, ·
CCOC(=O)N1CCN(S(=O)(=O)c2ccc(C(=O)Nc3nc4c(s3)CC(C)CC4)cc2)CC1 (stereo unspecified)
    99, -8, ·, ·
CCOC(=O)C1CCCN(C(=O)c2ccc(/C=C3\Oc4ccccc4NC3=O)cc2)C1 (stereo unspecified)
    105, ·, 86, 81
CC1Cc2cc(S(=O)(=O)NCc3ccc(N(C)C)cc3)ccc2N1C(=O)C1CCC1 (stereo unspecified)
    107, ·, 86, 85
Cc1cc(C)cc(N(CC(=O)NCc2ccccc2Cl)S(=O)(=O)c2c(C)[nH]c(=O)[nH]c2=O)c1
    104, 13, 92, 109
Cc1ccc(S(=O)(=O)N2CCc3ccccc3C2)cc1
    ·, 6, 94, 93
CC(=O)Nc1c(C)nn(-c2ccccc2)c1N1CCC(C(=O)Nc2cc(Cl)ccc2C)CC1
    102, ·, 90, 84
O=C(COc1ccc(C2SCCS2)cc1)Nc1ccc(Cl)cc1
    105, -3, 92, 82
O=C(CCn1c(=O)oc2ccccc21)OCc1cc(=O)n2cc(Br)ccc2n1
    ·, -46, 94, 76
COc1cc(-c2nc3ccccn3c2Nc2ccccc2C)ccc1O
    102, -6, 72, 100
CC1CCC(NC(=O)C2(C)Cn3c(cc4sccc43)C(=O)N2CCN2CCOCC2)CC1 (stereo unspecified)
    98, -10, ·, ·
COc1ccccc1NC(=O)Cn1nnc(C(=O)NCc2ccc3c(c2)OCO3)c1N
    107, -10, 101, 85
Cc1ccc(-n2ncc(C(=O)NCc3ccccn3)c2C2CCN(C(=O)OC(C)(C)C)CC2)cc1C
    110, ·, 98, 103
O=C(CSc1nc2ccccc2s1)N=C1NC(=O)CS1
    109, -26, 95, 112
CCOC(=O)NCCN1C(=O)C2C3C=CC(C3)C2C1=O (stereo unspecified)
    103, -14, 85, 96
O=C(CSc1ncnc2c1nnn2Cc1ccc(F)cc1)N1CCc2ccccc21
    105, -24, 85, 103
O=C(c1ccc2c(c1)N(Cc1ccccc1F)C(=O)c1ccccc1S2(=O)=O)N1CCc2ccccc21
    101, -30, 86, 90
CN1CCCC(OC(=O)C(C)(c2ccccc2)c2ccccc2)C1 (stereo unspecified)
    ·, 1, 90, 119
COC(=O)C1C(c2ccccc2)NC(c2ccccc2)C(C(=O)OC)S1(=O)=O (stereo unspecified)
    99, -10, 89, 97
Cc1cccc(NC(=O)CCn2c(C(F)(F)F)nc3cc(S(=O)(=O)N(C)C)ccc32)c1
    104, -16, ·, ·
Cc1cccc(NC(=O)Cn2c(=O)n(Cc3ccco3)c(=O)c3cccnc32)c1
    98, -8, 92, 100
COC(=O)CSc1nnc(-c2ccccc2)n1CC1CCCO1 (stereo unspecified)
    99, -13, 81, 89
CCCN(CCC)C(=O)c1cc(OC)cc(OC)c1
    ·, 5, 103, 79
COc1cccc(C(=O)Nc2cc(C)nn2-c2ncnc3c2cnn3-c2ccccc2)c1OC
    102, -26, ·, ·
Nc1nc(C(=O)Nc2ccccc2)c(-c2ccccc2)s1
    ·, -27, 77, 134

# Compound activity: PubChem, ICCB-Longwood Screening Facility, Harvard Medical School
